STAT3 SMM: STAT3 binders, primary screen, biochemical, small molecule microarray, single point, set 2; His-STAT3 binding, anti-His fluorescence; calls only; AID 624138, 2012; Signal transducer and activator of transcription 3 (Homo sapiens), P40763; hit rate 0.2% among 17,000;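 active means compounds whose four printed spots each show fluorescence over background unusually high for their array block, chance value under 7%; compounds were printed on slides so no solution concentration is given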;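 further: about 2 pmol printed per array spot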
Target sequence (P40763 whole entry, looked up): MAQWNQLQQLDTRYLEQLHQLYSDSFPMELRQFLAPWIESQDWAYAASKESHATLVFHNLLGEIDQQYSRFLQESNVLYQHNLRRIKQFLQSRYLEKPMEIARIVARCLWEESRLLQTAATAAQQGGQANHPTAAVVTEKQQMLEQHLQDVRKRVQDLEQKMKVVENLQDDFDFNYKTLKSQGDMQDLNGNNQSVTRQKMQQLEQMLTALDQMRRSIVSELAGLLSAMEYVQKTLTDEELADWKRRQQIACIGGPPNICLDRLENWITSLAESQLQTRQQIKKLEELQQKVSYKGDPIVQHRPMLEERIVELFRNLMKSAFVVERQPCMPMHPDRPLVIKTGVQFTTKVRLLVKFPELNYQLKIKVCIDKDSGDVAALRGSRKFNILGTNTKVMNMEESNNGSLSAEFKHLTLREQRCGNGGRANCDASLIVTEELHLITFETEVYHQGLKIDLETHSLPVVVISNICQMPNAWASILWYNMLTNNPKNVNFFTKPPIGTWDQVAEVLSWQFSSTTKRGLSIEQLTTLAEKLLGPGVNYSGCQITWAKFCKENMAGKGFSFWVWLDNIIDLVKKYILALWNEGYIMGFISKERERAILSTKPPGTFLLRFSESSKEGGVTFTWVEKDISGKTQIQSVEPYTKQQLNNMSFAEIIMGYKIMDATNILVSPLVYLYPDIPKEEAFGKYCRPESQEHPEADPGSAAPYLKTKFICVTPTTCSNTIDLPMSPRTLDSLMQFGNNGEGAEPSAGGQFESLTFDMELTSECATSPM
ID4 binder: binders of human ID4 protein, primary screen, biochemical, small molecule microarray, single point | Flag-ID4 binding, fluorescence F/B | calls only | DNA-binding protein inhibitor ID-4 (Homo sapiens), P47928 | AID 624137, 2012 | hit rate 1.2% among 31,000;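 active means spot signal over background at p below 0.07 in all four prints; compounds were printed on slides so no solution concentration is given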;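 further: a binder raises fluorescence above local background on the spot; about 2 pmol printed per array spot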
Target sequence (P47928 whole entry, looked up): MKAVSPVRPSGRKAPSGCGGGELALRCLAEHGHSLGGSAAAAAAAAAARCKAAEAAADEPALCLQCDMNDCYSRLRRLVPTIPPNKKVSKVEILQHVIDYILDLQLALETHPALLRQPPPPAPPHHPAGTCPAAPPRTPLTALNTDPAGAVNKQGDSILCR
p53 mut binder: binders of human mutant p53, primary screen, biochemical, small molecule microarray, anti-GST fluorescence | calls only | small molecule microarray binding | mutant tumor protein p53 (GST-tagged), Homo sapiens | hit rate 0.4% among 17,000;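 active means compounds whose four printed spots each glow above background more than chance allows, each with a p-value under 7%; compounds were printed on slides so no solution concentration is given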;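 further: about 2 pmol printed per array spot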
Myc binder: binders of human c-Myc, primary screen, biochemical, small molecule microarray, anti-His fluorescence; His-c-Myc binding; calls only; hit rate 1.5% among 17,000;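 active means spot fluorescence over background with P-value below 7% in all four replicate spots, showing protein binding; compounds were printed on slides so no solution concentration is given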;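 further: score is binary with 100 for all four spots passing and 0 otherwise; about 2 pmol printed per array spot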
Calls only; i = inactive; nt = no result given; + = active, no number.

SMILES	STAT3 SMM	ID4 binder	p53 mut binder	Myc binder
C[C@@H]1CN([C@H](C)CO)C(=O)c2cc(NC(=O)Cc3ccccc3)ccc2O[C@@H](C)CCCCO[C@@H]1CN(C)C(=O)c1ccncc1	i	i	i	i
CC(C)NC(=O)N(C)C[C@@H]1OCCCC[C@H](C)Oc2ccc(N(C)C)cc2C(=O)N([C@@H](C)CO)C[C@@H]1C	i	i	i	i
C[C@@H]1CN([C@H](C)CO)C(=O)CCCn2cc(nn2)CO[C@H]1CN(C)C(=O)CCC(F)(F)F	i	i	i	i
CC(C)NC(=O)Nc1ccc2c(c1)CC(=O)N([C@H](C)CO)C[C@@H](C)[C@H](CN(C)Cc1ccc(-c3ccccc3)cc1)O2	i	i	i	i
CC1OC(OC2C(O[C@H]3OC[C@](O)(CO)[C@H]3O)COC(O[C@@H]3[C@@H](O)[C@@H](O)[C@H](OC4C(OC(=O)[C@]56CCC(C)(C)CC5C5=CCC7[C@@]8(C)C[C@H](O)[C@H](OC9OC(CO)C(O)C(O)C9O)[C@@](C)(CO)C8[C@H](O)C[C@@]7(C)[C@]5(C)CC6)OCC(O)C4O)O[C@H]3C)C2O)C(O)C(O)C1O (stereo partly specified)	i	i	i	i
COc1ccc(S(=O)(=O)N(C)C[C@H]2Oc3ccc(NC(=O)CCC(F)(F)F)cc3C(=O)N([C@H](C)CO)C[C@@H]2C)cc1	i	i	i	i
C[C@H](CO)N1C[C@H](C)[C@H](CN(C)C(=O)Nc2ccccc2)OCCCC[C@H](C)Oc2ccc(NC(=O)CCC(F)(F)F)cc2C1=O	i	i	i	i
Cc1cc(C)nc(SC(C)C(=O)Nc2ccccc2)n1 (stereo unspecified)	i	i	i	i
Cc1nc(SCC(=O)c2ccccc2)c2sc3nc4c(cc3c2n1)COC(C)(C)C4	i	i	i	i
CC(C)NC(=O)N(C)C[C@H]1OCCCC[C@@H](C)Oc2ccc(NC(=O)Nc3ccc(F)cc3)cc2C(=O)N([C@H](C)CO)C[C@@H]1C	i	i	i	i
CC(C)=CC(O)C/C(C)=C/COc1ccc2ccc(=O)oc2c1 (stereo unspecified)	i	i	i	i
COC(=O)c1cc(C)cc(OC)c1C1C(=O)C(=O)c2c(O)cccc2C1=O (stereo unspecified)	i	nt	i	i
C[C@@H]1CN([C@@H](C)CO)C(=O)c2cc(NS(=O)(=O)c3ccccc3)ccc2O[C@@H](C)CCCCO[C@@H]1CN(C)Cc1ccc2c(c1)OCO2	i	i	i	i
COc1cc(OC)cc(OCC(O)Cn2cnc(-c3ccccc3)c2)c1 (stereo unspecified)	i	i	i	i
COc1ccc(CN(C)C[C@H]2Oc3c(NS(=O)(=O)c4cccs4)cccc3C(=O)N([C@H](C)CO)C[C@H]2C)cc1	i	i	i	i
C[C@H](CO)N1C[C@H](C)[C@@H](CN(C)C(=O)NC2CCCCC2)Oc2c(NS(=O)(=O)c3cn(C)cn3)cccc2C1=O	i	i	i	i
COc1ccc(S(=O)(=O)N(C)C[C@H]2Oc3ccc(NC(=O)Cc4cn(C)c5ccccc45)cc3CC(=O)N([C@@H](C)CO)C[C@H]2C)cc1	i	i	i	i
C[C@H]1CN([C@@H](C)CO)C(=O)Cc2cc(NS(=O)(=O)c3cccs3)ccc2O[C@@H]1CN(C)S(=O)(=O)c1ccccc1	i	i	i	i
COc1ccc(-c2oc3cc(O[C@@H]4O[C@@H](C)[C@H](O)[C@@H](O)[C@H]4O)cc(O)c3c(=O)c2O[C@@H]2O[C@H](CO)[C@@H](O)[C@H](O)[C@H]2O)cc1	i	nt	i	i
Cc1c(Cl)cccc1NC(=O)CN1CCC(C(N)=O)(N2CCCCC2)CC1	i	i	i	i
CNC[C@H]1Oc2ccc(NC(=O)Nc3ccc(F)cc3)cc2C(=O)N([C@@H](C)CO)C[C@H]1C	i	i	i	i
C[C@H](CO)N1C[C@H](C)[C@@H](CN(C)C(=O)Cc2ccccc2)OCCCC[C@H](C)Oc2ccc(NC(=O)Nc3cccc4ccccc34)cc2C1=O	i	nt	i	i
C[C@H](CO)N1C[C@H](C)[C@H](CN(C)C(=O)NC2CCCC2)Oc2ncc(Br)cc2C1=O	i	i	i	i
CN(C(=O)CSc1nnc(N)s1)c1ccccc1	i	i	i	i
C[C@]12CCC[C@](C)(C(=O)O)C1CCC13C=C(CO)C(CCC12)C3 (stereo partly specified)	i	i	i	i
CCOC(=O)C1=C(C)Nc2ncnn2C1c1ccco1 (stereo unspecified)	i	i	i	i
C[C@H]1CCCCO[C@H](CN(C)C(=O)Nc2ccccc2)[C@@H](C)CN([C@@H](C)CO)C(=O)c2cc(NC(=O)CCC(F)(F)F)ccc2O1	i	i	i	i
C[C@H]1CN([C@@H](C)CO)C(=O)c2cc(NC(=O)Cc3cn(C)c4ccccc34)ccc2O[C@H]1CN(C)C(=O)Nc1ccccc1	i	+	i	i
C[C@H](CO)N1C[C@H](C)[C@H](CN(C)Cc2ccncc2)Oc2ccc(NC(=O)C3CC3)cc2CC1=O	i	i	i	i
C[C@@H]1CCCCO[C@@H](CN(C)Cc2ccc(Cl)c(Cl)c2)[C@H](C)CN([C@@H](C)CO)C(=O)c2cc(N(C)C)ccc2O1	i	nt	i	i
C[C@H](CO)N1C[C@H](C)[C@H](CN(C)S(=O)(=O)c2cccs2)Oc2c(NC(=O)Nc3cccc4ccccc34)cccc2C1=O	i	i	i	i
C[C@@H]1CN([C@@H](C)CO)C(=O)c2cc(NC(=O)NC3CCCCC3)ccc2O[C@H]1CN(C)C	i	i	i	i
CC(C)NC(=O)N(C)C[C@H]1OCCCC[C@H](C)Oc2ccc(NC(=O)C3CCCCC3)cc2C(=O)N([C@@H](C)CO)C[C@@H]1C	i	nt	i	i
CC(C)NC(=O)Nc1ccc2c(c1)C(=O)N([C@@H](C)CO)C[C@@H](C)[C@@H](CN(C)S(=O)(=O)c1cccs1)OCCCC[C@H](C)O2	i	i	i	i
Cc1cc(C(=O)NCCCn2ccnc2)sc1-c1ccccc1	i	i	i	i
Cc1nnnn1CC(=O)Nc1cccc([N+](=O)[O-])c1	i	i	i	i
C[C@@H]1CCCCO[C@H](CN(C)Cc2ccncc2)[C@@H](C)CN([C@@H](C)CO)C(=O)c2cc(NS(=O)(=O)c3cccs3)ccc2O1	i	nt	i	i
C[C@H](CO)N1C[C@H](C)[C@@H](CN(C)C(=O)NC2CCCCC2)Oc2ccc(NC(=O)Cn3cnnn3)cc2CC1=O	i	i	i	i
C[C@@H]1CN([C@@H](C)CO)C(=O)Cc2cc(NC(=O)CCC(F)(F)F)ccc2O[C@@H]1CN(C)C	i	i	i	i
COc1cccc(C(=O)OCc2nc3ccccc3s2)c1	i	i	i	i

3 compounds from above, sorted by molecular weight, highest first.
SMILES	STAT3 SMM	ID4 binder	p53 mut binder	Myc binder
C[C@@H]1CCCCO[C@H](CN(C)Cc2ccncc2)[C@@H](C)CN([C@@H](C)CO)C(=O)c2cc(NS(=O)(=O)c3cccs3)ccc2O1	i	nt	i	i
C[C@H]1CN([C@@H](C)CO)C(=O)Cc2cc(NS(=O)(=O)c3cccs3)ccc2O[C@@H]1CN(C)S(=O)(=O)c1ccccc1	i	i	i	i
CN(C(=O)CSc1nnc(N)s1)c1ccccc1	i	i	i	i

Next results follow.
SMILES	STAT3 SMM	ID4 binder	p53 mut binder	Myc binder
COC(=O)c1cc2cc(O)c(-c3c(O)cc4cc(C(=O)OC)oc(=O)c4c3O)c(O)c2c(=O)o1	i	i	i	i
CCc1cc(O)c(C)c(O)c1C=O	i	i	i	i
COc1ccc(C2CC(=O)Oc3cc(O)cc(O)c32)cc1 (stereo unspecified)	i	i	i	i
OC(Cn1nnc2ccccc21)Cn1c2ccc(Cl)cc2c2cc(Cl)ccc21 (stereo unspecified)	i	i	i	i
Cc1cc(C(=O)Nc2cccc3c2O[C@H](CN(C)S(=O)(=O)c2cccs2)[C@@H](C)CN([C@H](C)CO)C3=O)n(C)n1	i	i	i	i
Cc1noc(C)c1NC(=O)Nc1ccc2c(c1)C(=O)N([C@@H](C)CO)C[C@@H](C)[C@H](CN(C)C)O2	i	i	i	i
Cc1ccc(S(=O)(=O)Nc2ccc3c(c2)CC(=O)N([C@H](C)CO)C[C@@H](C)[C@@H](CN(C)C(=O)Nc2c(C)noc2C)O3)cc1	i	i	i	i
Cc1ccc(NC(=O)Cn2cncc2-c2ccc([N+](=O)[O-])cc2)cc1C	i	i	i	i
C[C@@H]1CCCCO[C@@H](CN(C)C(=O)C2CCCCC2)[C@@H](C)CN([C@@H](C)CO)C(=O)c2cc(NS(=O)(=O)c3cn(C)cn3)ccc2O1	i	i	i	i
O=C(Nc1cccnc1)C1CC(c2ccc(Cl)c(Cl)c2)=NO1 (stereo unspecified)	i	i	i	i

Quoted at random: 2 records from the list
SMILES	STAT3 SMM	ID4 binder	p53 mut binder	Myc binder
C[C@@H]1CCCCO[C@@H](CN(C)C(=O)C2CCCCC2)[C@@H](C)CN([C@@H](C)CO)C(=O)c2cc(NS(=O)(=O)c3cn(C)cn3)ccc2O1	i	i	i	i
Cc1noc(C)c1NC(=O)Nc1ccc2c(c1)C(=O)N([C@@H](C)CO)C[C@@H](C)[C@H](CN(C)C)O2	i	i	i	i

Whole records from above. Order of values: STAT3 SMM	ID4 binder	p53 mut binder	Myc binder
Cc1cc(C(=O)Nc2cccc3c2O[C@H](CN(C)S(=O)(=O)c2cccs2)[C@@H](C)CN([C@H](C)CO)C3=O)n(C)n1 is listed with i	i	i	i
Cc1ccc(NC(=O)Cn2cncc2-c2ccc([N+](=O)[O-])cc2)cc1C is listed with i	i	i	i

The listing continues.
SMILES	STAT3 SMM	ID4 binder	p53 mut binder	Myc binder
Cc1noc(C)c1NC(=O)N(C)C[C@@H]1Oc2ccc(NC(=O)Cc3cn(C)c4ccccc34)cc2CC(=O)N([C@H](C)CO)C[C@@H]1C	i	i	i	i
O=C(/C=C/c1ccccc1)O[C@@H]1C[C@@](O)(C(=O)O)C[C@@H](O)[C@@H]1O	i	nt	i	i
Cc1cccc(NC(=O)CSc2nnc(-c3cccs3)n2-c2ccccc2)c1C	i	i	i	i
C[C@@H]1CN([C@@H](C)CO)C(=O)c2cc(NS(=O)(=O)c3cn(C)cn3)ccc2O[C@@H]1CN(C)C	i	i	i	i
C[C@@H]1CN([C@H](C)CO)C(=O)c2cccc(NC(=O)C3CCOCC3)c2O[C@H]1CN(C)C(=O)Nc1ccc2c(c1)OCO2	i	i	i	i
COc1ccc(-c2ccc(N)[n+](CCCC(=O)O)n2)cc1	i	i	i	i
COc1ccc(S(=O)(=O)Nc2cccc3c2O[C@H](CN(C)Cc2ccc4c(c2)OCO4)[C@H](C)CN([C@H](C)CO)C3=O)cc1	i	i	i	i
C[C@@H]1CN([C@@H](C)CO)C(=O)Cc2cc(N(C)C)ccc2O[C@H]1CN(C)S(=O)(=O)c1cn(C)cn1	i	i	i	i
CC1=C(C(=O)Nc2ccccc2C)C(c2cccc([N+](=O)[O-])c2)n2ncnc2N1 (stereo unspecified)	i	i	i	i
CNC[C@@H]1Oc2c(NC(=O)Nc3c(C)noc3C)cccc2C(=O)N([C@@H](C)CO)C[C@H]1C	i	i	i	i
Cc1noc(C)c1NC(=O)Nc1cccc2c1O[C@@H](CN(C)C)[C@@H](C)CN([C@H](C)CO)C2=O	i	i	i	i
C[C@H](CO)N1C[C@H](C)[C@H](CN(C)C(=O)Nc2ccccc2)Oc2ccc(NC(=O)NC3CCCCC3)cc2C1=O	i	i	i	i
Cc1noc(C)c1NC(=O)Nc1ccc2c(c1)C(=O)N([C@@H](C)CO)C[C@@H](C)[C@H](CN(C)C(=O)NC1CCCCC1)OCCCC[C@@H](C)O2	i	nt	i	i
COc1ccc(CN(C)C[C@H]2Oc3ccc(NC(=O)Nc4cccc5ccccc45)cc3CC(=O)N([C@H](C)CO)C[C@H]2C)cc1	i	i	i	i
C[C@@H]1CN([C@H](C)CO)C(=O)Cc2cc(NC(=O)Nc3ccc4c(c3)OCO4)ccc2O[C@H]1CN(C)CC1CC1	i	i	i	i
COc1ccc(NC(=O)N(C)C[C@@H]2Oc3ccc(NS(=O)(=O)c4ccccc4)cc3C(=O)N([C@@H](C)CO)C[C@@H]2C)cc1	i	i	i	i
Cc1noc(C)c1NC(=O)Nc1ccc2c(c1)CC(=O)N([C@H](C)CO)C[C@H](C)[C@@H](CN(C)S(=O)(=O)c1cccs1)O2	i	i	i	i
Cc1noc(C)c1S(=O)(=O)Nc1ccc2c(c1)C(=O)N([C@@H](C)CO)C[C@H](C)[C@H](CN(C)C(=O)Nc1ccccc1)O2	i	i	i	i
O=C1O[C@@H](c2ccccc2)[C@@H](c2ccccc2)N2[C@@H](c3ccc(O)cc3)[C@]3(C(=O)Nc4ccccc43)[C@@H](C(=O)NC[C@H](O)c3ccccc3)[C@H]12	i	i	i	i
C[C@@H]1CCCCO[C@@H](CN(C)C(=O)CCCN(C)C)[C@@H](C)CN([C@@H](C)CO)C(=O)c2cc(NS(=O)(=O)c3cccs3)ccc2O1	i	i	i	i
O=C(O)C(O)Cc1c[nH]c2ccccc12 (stereo unspecified)	i	i	i	i
C[C@@H]1CN([C@@H](C)CO)C(=O)c2cc(NS(C)(=O)=O)ccc2O[C@H]1CN(C)C(=O)Nc1ccc(F)cc1	i	i	i	i
C[C@@H]1CN([C@@H](C)CO)C(=O)Cc2cc(NC(=O)NC3CCCCC3)ccc2O[C@@H]1CN(C)C(=O)Nc1ccc2c(c1)OCO2	i	i	i	i

Bioassay records from PubChem.

These rows are one share of the data; count on the stated rates, not on these rows.
